2A StopGo: FMDV 2A StopGo reporter, luciferase signal | human cells with a luciferase reporter of 2A StopGo recoding; control for the full effect not named in the record | Potency, µM (highest dose often 57.9 µM), for the others: at the highest dose signal change, negative = less light | 1.2% of 410,000 active | AID 1159524; active = well fitted falling curve with a large enough effect; inconclusive = small, poorly fitted or top-dose-only effect; inactive = no such curve, though single readings can be large or run the other way; tested in HEK293T cells; further: on the % scale 0 is the no-effect control and ±100 the full control effect; nearly all actives have a fitted effect of over 45% in size; luciferase light after 4 h
Cruzain inh noDet: inhibitors of Trypanosoma cruzi cruzain without detergent; Potency, µM, inactives show max response, negative = inhibition, most hits filed as inhibitors; P25779; purified cruzain, Z-FR-AMC fluorescence, no detergent; 2.3% of 200,000 active; active means well fitted curve in the direction sought with a large enough effect; inconclusive means small, poorly fitted or top-dose-only effect, or another doubt; inactive means no such curve, though single readings can be large; an effect the other way counts as inactive or inconclusive;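 further: plate controls were enzyme without inhibitor for no effect and buffer without enzyme for full effect; nearly all actives have a fitted effect of over 40% in size; top concentration of the series not given in the record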
Target sequence (P25779 123-467 limits assumed): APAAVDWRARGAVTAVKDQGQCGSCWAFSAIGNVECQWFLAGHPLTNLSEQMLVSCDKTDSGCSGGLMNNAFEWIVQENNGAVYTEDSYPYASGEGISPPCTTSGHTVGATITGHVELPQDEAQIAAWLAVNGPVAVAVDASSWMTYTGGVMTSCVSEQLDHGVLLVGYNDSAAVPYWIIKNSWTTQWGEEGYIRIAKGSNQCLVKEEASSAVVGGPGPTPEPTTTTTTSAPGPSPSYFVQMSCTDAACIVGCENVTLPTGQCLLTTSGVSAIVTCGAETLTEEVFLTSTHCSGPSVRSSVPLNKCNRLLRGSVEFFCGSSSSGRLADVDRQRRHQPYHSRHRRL
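Detergent-free condition (0.00005% Triton X-100) in acetate buffer pH 5.5 with DTT. 1.5 nM enzyme and compound were pre-mixed 15 min, then 2 uM Z-FR-AMC substrate added; reaction progress from fluorescence change between first and third reads (60 s).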
Cruzain Triton: cruzain (T. cruzi) inhibition with detergent; purified cruzain, Z-FR-AMC fluorescence, 0.01% Triton; Potency, µM, for inactives: max response, negative = inhibition, most hits filed as inhibitors; 0.43% of 200,000 active; AID 1478; active means well fitted curve in the direction sought with a large enough effect; inconclusive means small, poorly fitted or top-dose-only effect, or another doubt; inactive means no such curve, though single readings can be large; an effect the other way counts as inactive or inconclusive;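 further: plate controls were neutral wells for no effect and buffer without enzyme for full effect; nearly all actives have a fitted effect of over 40% in size; top concentration of the series not given in the record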
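15 min RT preincubation of 1.5 nM cruzain with compound, then 2 uM Z-FR-AMC added; kinetic AMC fluorescence, 60 s delta. Triton X-100 0.01%, pH 5.5.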
MARV entry inh: blocks Marburg virus binding to or entry into cells | Marburg virus pseudotyped entry inhibition, cell reporter; control for the full effect not named in the record; about a third of the inactives were read at about 46 µM | Potency, µM (titrated, usually from 37.8 µM), without a hit: at the top dose activity change, negative = inhibition, actives largely listed as inhibitors | 1.8% of 300,000 active; active = well fitted inhibition curve with a large enough effect; inconclusive = small, poorly fitted or top-dose-only effect, or effect the other way; inactive = flat fitted curve, though single readings scatter; tested in HEK293 cells; about a fifth of its hits are not listed in these tables; further: on the % scale 0 is the no-effect control and ±100 the full control effect; luciferase read-out
SARS PLP yeast: SARS-CoV PLP inhibition in yeast. S. cerevisiae expressing SARS-CoV PLpro, growth rescue; control for the full effect not named in the record. Potency, µM (titrated, usually from 32.9 µM), for inactives: at the top dose activity, positive = growth rescue. 0.19% of 330,000 active. AID 485353; further: 0% is about no effect; nearly all actives have a fitted effect of over 55% in size; growth read by luminescence after 48 h
Lassa entry inh: inhibitors of Lassa virus binding or cell entry. Lassa virus pseudotype entry inhibition, cell reporter; control for the full effect not named in the record. Potency, µM (highest dose often 37.9 µM), for the others: at the highest dose activity change, negative = inhibition, hits mostly inhibitors. 1.2% of 300,000 active. AID 540256; active means well fitted inhibition curve with a large enough effect; inconclusive means small, poorly fitted or top-dose-only effect, or effect the other way; inactive means flat fitted curve, though single readings scatter; tested in HEK293 cells; further: on the % scale 0 is the no-effect control and ±100 the full control effect; nearly all actives have a fitted effect of over 50% in size; luciferase read-out
RE007 growth inh: less growth of the S. pombe RE007 Vpr strain; S. pombe RE007 Vpr strain, BacTiter-Glo ATP luminescence, 24 h; control for the full effect not named in the record; Potency, µM (highest dose often 92.2 µM), for the others: at the top dose activity change, negative = less growth; 0.21% of 360,000 active; active = well fitted falling curve with a large enough effect; inconclusive = small, poorly fitted or top-dose-only effect; inactive = no such curve, though single readings can be large or run the other way;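 further: on the % scale 0 is the no-effect control and ±100 the full control effect; nearly all actives have a fitted effect of over 50% in size; the assay follows cell death caused by Vpr and the record does not say whether a fall means rescue or toxicity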
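Fission yeast strain RE007, carrying one chromosomally integrated HIV-1 vpr copy, was seeded at OD 0.01 in PMG+AL medium with 23 nL pinned compound. After 24 h at 30 °C and 99% humidity, viability was read by BacTiter-Glo luminescence.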
NS1 function inh: influenza NS1 inhibition; S. cerevisiae slowed by influenza A NS1, growth recovery by OD600; Potency, µM (series often up to 46.1 µM), without a hit: top-dose activity, positive = more growth; 0.4% of 270,000 active; further: actives are rising curves; nearly all actives have a fitted effect of over 50% in size
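S. cerevisiae expressing influenza A NS1, grown in glucose, washed, then diluted 1:100 into pH 6.0 -URA galactose medium with 23 nl compound. Growth recovery read as OD600; NS1-free strain serves as control.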
* marks the source's active call; other numbers are inactive results; ? = inconclusive; · = not tested or not shown; & = joins results of further samples; [ ] = dose if it differs, or a comment. Unless noted, the call rests on the fitted dose curve; in most records, active means well fitted rising curve with a large enough effect; inconclusive means small, poorly fitted or top-dose-only effect; inactive means no such curve, though single readings can be large or run the other way. Potency means the concentration at half of the fitted maximal effect.

SMILES | 2A StopGo | Cruzain inh noDet | Cruzain Triton | MARV entry inh | SARS PLP yeast | Lassa entry inh | RE007 growth inh | NS1 function inh
CC(C)(C)c1cc(NCc2ccccn2)n2ncc(-c3ccc(Cl)cc3)c2n1 | 3.8% | · | · | · | 0.0% | · | 3.7% | 1.3%
CCOC(=O)C1CCN(C(=O)c2cccc(NC3=NC4CS(=O)(=O)CC4S3)c2)CC1 (stereo not given) | -26.7% | · | · | · | 1.1% | · | 20.0% | 7.3%
Cc1cc(C)n2nc(-c3cccnc3)nc2n1 | 11.4% | 5.4% | 3.2% | 8.2% | -7.5% | 1.7% | -11.3% | 2.6%
COc1cccc(N/C=C/c2onc(C)c2[N+](=O)[O-])c1 | 74.7%[activator] | · | · | · | 0.5% | · | 3.2% | 9.3%
CC(NC(=O)NC1CCCCC1)C(c1cccs1)N1CCN(c2ccccc2)CC1 (stereo not given) | 0.0% | -3.2% | -1.9% | · | -3.4% | · | -1.0% | -16.4%
COc1ccc(-n2c(=O)cc(N3CCN(c4ccccc4OC)CC3)[nH]c2=O)cc1 | -0.9% | -4.5% | 3.7% | -28.4% | -6.1% | -16.9% | -0.6% | -5.2%
Cc1ccccc1-n1c(O)c(/C=N/Nc2nc3c(c(=O)n(C)c(=O)n3C)n2C)c(=O)[nH]c1=S | ? | ? | -5.3% | 30.0% | 8.7% | 16.1% | 9.5% | 0.1%
CCCCCCc1ccc(N2C[C@H](C)[C@@H](CC(=O)NCc3ccccc3)C2=O)cc1 | 20.8% | · | · | · | -10.5% | · | -12.5% | 2.0%
Cc1ccc(N(CC(=O)NCc2ccco2)C(=O)CCC(=O)Nc2nccs2)c(C)c1 | -15.6% | · | · | -4.4%[46.1 µM] | -0.6% | ? | 111.3% | 7.4%
O=C(CSCc1ccccc1Cl)NN=C1CCCCCC1 | 33.3%[activator] | 4.7% | 1.9% | 2.1%[46.1 µM] | -4.5% | 0.9% | -3.7% | 7.6%
O=C(COC(=O)c1cccc(S(=O)(=O)N2CCc3ccccc32)c1)Nc1ccc(Cl)cn1 | -7.0% | ? | -9.4% | -1.8% | -22.1% | · | 2.9% | 4.1%
Cc1cccc(N2CCN(C(=O)C3CCN(S(=O)(=O)c4c(C)noc4C)CC3)CC2)c1C | ? | ? | -5.0% | -10.2%&-10.2%[46.1 µM] | -5.3% | -5.0%[46.1 µM] | 3.2% | 12.6%
Oc1[nH]c2ccc(Br)cc2c1N=NC(=S)NCC1CCCO1 (stereo not given) | -22.8% | · | · | 5.3%[46.1 µM] | 0.5% | ? | 7.9% | 2.0%
O=S(=O)(c1ccc2c(c1)OCCO2)N1CCC(O)(c2ccc(Cl)cc2)CC1 | 0.0% | 1.7% | 0.4% | 7.8% | -14.1% | -7.7% | -4.8% | -34.9%
O=C(N/N=C/c1cccc([N+](=O)[O-])c1)c1cc(-c2ccc3c(c2)OCO3)n[nH]1 | -23.5% | · | · | ? | 1.8% | -8.6% | 5.5% | 7.5%
CC(=O)c1ccc(-n2c(-c3cc(-c4ccsc4)n[nH]3)n[nH]c2=S)cc1 | -12.2% | · | · | 15.7%[46.1 µM] | -1.0% | 20.7%[46.1 µM] | 0.8% | ·
COc1ccc(OC)c(NC(=O)CSc2c3c(nc4cc(Cl)ccc24)CCCC3)c1 | ? | -14.1% | -5.5% | 4.5%[46.1 µM] | · | 2.3%[46.1 µM] | · | ·
O=[N+]([O-])c1ccc(NCCCNS(=O)(=O)c2ccc(Cl)cc2)c(Cl)c1 | -17.6% | 4.8% | -12.1% | 0.7% | -0.1% | · | -7.1% | -109.4%
O=C(CSc1nc(-c2ccccc2)cc(=O)[nH]1)N1CCc2ccccc21 | -13.6% | -13.3% | 1.3% | -21.9% | 0.2% | -5.1% | -19.4% | 4.2%
O=C(Nc1cccc(S(=O)(=O)N2CCCCCC2)c1)c1ccc2ccccc2n1 | 28.5% | ? | -5.1% | 0.6% | 14.0% | 5.6% | -3.2% | 7.6%
COc1ccc(OC)c(S(=O)(=O)N2CCC(C(=O)N3CCCC3)CC2)c1 | -5.4% | · | · | -0.4%[46.1 µM] | -0.3% | 5.6%[46.1 µM] | -1.6% | 9.1%
COC(=O)c1ccc2c(=O)n(CCN3CCOCC3)c(SCC(=O)Nc3cccc(OC)c3)nc2c1 | 13.9% | · | · | ? | -1.2% | -8.4%[46.1 µM] | -4.1% | 4.6%
CCC(c1nnc(SCCNCCO)n1CCN1CCOCC1)N(C)C (stereo not given) | -5.9% | -4.5% | -0.4% | 5.2% | -6.2% | 2.9% | 4.2% | -9.7%
CC[n+]1c(/C=C/C=C/c2ccc(N(C)C)cc2)sc2ccccc21 | ? | · | · | 1.78µM* | -6.8% | ? | 6.31µM* | -72.9%
COc1cc(CC(=O)N/N=C/c2ccccc2)c([N+](=O)[O-])cc1OC | · | -2.3% | -9.7% | · | 9.1% | · | · | ?
CCc1ccc(C(=O)N/N=C/c2ccc(Cl)cc2Cl)nc1 | · | 1.2% | -6.9% | · | -11.8% | · | · | 5.2%
COc1ccc(OC)c2nc(-c3ccc4c(c3)OCO4)ccc12 | 53.4%[activator] | · | · | ? | -2.3% | ? | -6.8% | -36.5%
O=C(CCc1ccccc1)N1CCN(CCO)CC1 | -25.6% | 4.9% | -9.0% | · | 0.2% | · | 3.7% | -6.7%
CCOC(=O)c1ccc(S(=O)(=O)NNC(=O)COc2ccc(C)cc2)cc1 | 9.0% | -29.6% | -2.4% | 4.6% | 4.0% | -0.3% | 7.4% | -2.8%
COc1ccc(CCNC(=O)CSc2ncc3c(n2)-c2cc(Cl)ccc2N(Cc2ccccc2)S3(=O)=O)cc1OC | -18.8% | -18.8% | -0.6% | · | · | 17.0%[46.1 µM] | · | ·

Part of the list above with just Cruzain Triton and 2A StopGo:
Molecule | Cruzain Triton | 2A StopGo
CCOC(=O)c1ccc(S(=O)(=O)NNC(=O)COc2ccc(C)cc2)cc1 | -2.4% | 9.0%
COc1ccc(CCNC(=O)CSc2ncc3c(n2)-c2cc(Cl)ccc2N(Cc2ccccc2)S3(=O)=O)cc1OC | -0.6% | -18.8%

The results go on:
SMILES | 2A StopGo | Cruzain inh noDet | Cruzain Triton | MARV entry inh | SARS PLP yeast | Lassa entry inh | RE007 growth inh | NS1 function inh
CCOC(=O)C1CCN(CCC(=O)Nc2ccc(Br)c(C)c2)CC1 | ? | -11.5% | 0.5% | 1.9%&1.9% | 15.6% | 18.0% | 11.0% | 8.8%
CCN(CC)C(=O)Cn1c(=O)oc2ccccc21 | -4.4% | · | · | · | -1.4% | · | 31.9% | -1.8%
O=C(c1ccccc1O)N1CCOCC1 | 3.3% | · | · | 20.3%[46.1 µM] | -0.2% | -5.3% | -4.4% | 3.1%
Nc1nc(SCC(=O)NCc2ccc3c(c2)OCO3)n[nH]1 | -18.0% | · | · | ? | 0.1% | 9.3%[46.1 µM] | -2.9% | 0.4%
CC(=O)Nc1cccc(-c2csc(Nc3ccccn3)n2)c1 | · | -13.8% | -10.3% | ? | -23.6% | ? | 2.3% | -35.7%
CC(OC(=O)c1nsc(Cl)c1Cl)C(=O)NCc1ccco1 (stereo not given) | 2.6% | -8.9% | 1.3% | 4.9% | 0.7% | -4.2% | -13.6% | -0.3%
CCc1nnc(NC(=O)c2ccc(Cl)c(S(=O)(=O)N3CCc4ccccc4C3)c2)s1 | 25.1µM* | -7.8% | -1.2% | 3.9% | 3.2% | 4.0% | -12.8% | 15.0%
O=C(COC(=O)C1CCN(c2ccc(C(F)(F)F)cn2)CC1)NCc1ccc(F)cc1 | 6.0% | · | · | 19.0%[46.1 µM] | 1.7% | 11.3% | 6.4% | ·
COC(=O)C1=C(C)NC(C)=C(C(=O)OC)C1c1ccc(-c2cccc([N+](=O)[O-])c2)o1 | -1.3% | · | · | · | 0.4% | · | 2.8% | 5.1%
O=C(NC1CCN(C(=O)N2c3ccccc3Sc3ccccc32)CC1)c1ccccc1F | ? | 20µM* | -5.9% | -19.6% | -26.9% | -15.5% | -8.8% | -15.4%
O=S(=O)(c1cccc2nonc12)N1CCN(c2ccc(F)cc2)CC1 | -24.6% | · | · | · | 1.0% | · | -16.9% | -0.5%
CSc1ccccc1C(=O)Nc1cccc([N+](=O)[O-])c1C | -6.4% | · | · | -23.6%[46.1 µM] | 2.1% | -21.1%[46.1 µM] | -14.9% | ·
Cc1cccc(NC(=O)CN2CCN(CC(=O)Nc3cccc(C)c3)CC2)c1 | -6.2% | 15.0% | -1.6% | -7.8% | 1.9% | 5.3% | 15.5% | -3.1%
O=C(COC(=O)CCc1nc2ccccc2c(=O)[nH]1)NC(c1ccccc1)c1ccccc1 | -23.3% | · | · | · | -6.4% | · | 6.7% | -0.1%
Cc1ccn2c(=O)nc(SCC(=O)N3CCCCC3)nc2c1 | 10.6% | · | · | 9.4% | 0.8% | 11.4% | 0.8% | ·
CCOC(=O)C(=CNc1cc(OC)ccc1-n1cccc1)C(=O)OCC | -21.4% | · | · | -27.9%[46.1 µM] | 0.9% | ? | -9.4% | 1.3%
CC(=O)c1ccc(Nc2c(C)n(C)n(-c3ccccc3)c2=O)cc1 | -7.2% | · | · | 5.2%[14.2 µM] | 2.2% | 27.7% | 5.9% | 4.1%
O=S(=O)(/C=C/c1ccccc1)Nc1ccc(F)cc1 | 63.1%[activator] | · | · | 1.1%[46.1 µM] | -4.8% | -3.7% | 5.5% | -3.1%
COc1ccc(/C=C/C(=O)NC(C)CCc2ccccc2)cc1 (stereo not given) | 6.8% | -10.8% | -6.1% | 17.1% | -29.5% | -5.4% | 9.3% | -38.6%
COC(=O)c1cccn(CC(=O)c2ccc(Cl)cc2Cl)c1=O | 20.8% | · | · | -23.4%[46.1 µM] | -0.8% | -0.1%[46.1 µM] | 6.2% | ·
Cc1cccc(N/C=C/c2onc(C)c2[N+](=O)[O-])c1 | 69.1%[activator] | -17.3% | -4.0% | ? | · | ? | -3.7% | 2.0%
O=C(CN1CCN(Cc2ccc(F)cc2)CC1)Nc1ccccc1F | -12.2% | · | · | · | -1.2% | · | -5.3% | -2.6%

Source: PubChem BioAssay
